# Screens deposited in PubChem by Broad Institute.
# Vaccinia stage: blocks a specific stage of Vaccinia orthopoxvirus infection, primary screen, cell-based, single point; Vaccinia-infected cells, mCherry/Venus stage reporter fluorescence; active compounds read low; some inactives read as strong as hits; activity change (mCherry), % (concentration not given with the values); actives 0.01% (n = 89,000); AID 1053133, 2014;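 active means mCherry past -33% and 40 or more points under the early reporter, replicates agreeing; inconclusive means past -33% without that gap or agreement; tested in A549 cells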;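 further: scaled between vehicle wells and reference inhibitor wells; 23 nL library stock went into each well; one replicate is shown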
# Vaccinia stage Venus: further read-out of Vaccinia stage, marked with its call; activity change (Venus), %; measured here: Venus reporter, other viral stage;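 negative = less Venus signal; first of two replicates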
# Active calls of the source: *; ? = inconclusive; . = no result given. This is a subset; rates above refer to the full screens.
(1) CC(C)NC(=O)N(C)C[C@@H]1OCCCC[C@H](C)Oc2ccc(NC(=O)Nc3cccc4ccccc34)cc2C(=O)N([C@@H](C)CO)C[C@H]1C
(2) CO[C@H]1CN(C)C(=O)c2cc(NC(=O)C3CC3)ccc2OC[C@H](C)N(CCC(F)(F)F)C[C@@H]1C
(3) C[C@@H]1CN([C@H](C)CO)C(=O)c2cc(NS(=O)(=O)c3ccc(Cl)cc3)ccc2O[C@@H](C)CCCCO[C@H]1CN(C)Cc1ccccc1
(4) CO[C@H]1CN(C)C(=O)c2cc(NC(=O)C3CC3)ccc2OC[C@@H](C)N(C(=O)C2CCOCC2)C[C@@H]1C
(5) COc1cccc(CN2CC3(CN(C)C3)c3c(n(C)c4cc(OC)ccc34)[C@@H]2CO)c1

compound no.	1	2	3	4	5
Vaccinia stage	21	0	?	11	-4
Vaccinia stage Venus	14	7	.	7	-2

(6) COCC(=O)Nc1ccc2c(c1)C(=O)N(C)C[C@@H](OC)[C@@H](C)CN(C(=O)C1CCCC1)[C@H](C)CO2
(7) O=C(Nc1ccc2c(c1)[C@@H]1C[C@@H](CC(=O)N3CCc4ccccc4C3)O[C@H](CO)[C@@H]1O2)C1CCOCC1
(8) CNC[C@H]1Oc2cc(-c3ccccc3F)ccc2S(=O)(=O)N([C@@H](C)CO)C[C@@H]1C
(9) C[C@H](NC(=O)[C@@H]1[C@@H](CO)[C@@H]2Cn3c(ccc(-c4ccncc4)c3=O)[C@@H]2N1C)c1ccccc1
(10) C[C@@H]1CN([C@H](C)CO)C(=O)c2cc(C#CC3CCCC3)cnc2O[C@H]1CN(C)C(=O)C1CCC1

compound no.	6	7	8	9	10
Vaccinia stage	-1	11	-16	14	-10
Vaccinia stage Venus	4	13	-6	6	-8

(11) C[C@@H]1CN([C@H](C)CO)C(=O)CCCn2nncc2CO[C@H]1CN(C)S(=O)(=O)c1ccc(-n2cccn2)cc1
(12) Cc1noc(C)c1NC(=O)N(C)C[C@@H]1Oc2c(NS(=O)(=O)c3ccc(Cl)cc3)cccc2C(=O)N([C@H](C)CO)C[C@H]1C
(13) CCC(=O)N1C[C@@H](C)[C@@H](OC)CN(C)C(=O)c2ccc(NC(=O)CC(F)(F)F)cc2OC[C@@H]1C
(14) Cc1ccc(S(=O)(=O)N[C@H]2CC[C@@H](CCNC(=O)Nc3ccc(Cl)cc3)O[C@@H]2CO)cc1
(15) C[C@H]1CN([C@@H](C)CO)C(=O)c2cc(NC(=O)NC3CCCCC3)ccc2O[C@H]1CN(C)C(=O)Nc1ccc(C(F)(F)F)cc1

compound no.	11	12	13	14	15
Vaccinia stage	-1	9	59	?	4
Vaccinia stage Venus	4	-1	34	.	3

(16) COc1ccc(NC(=O)N(C)C[C@@H]2OCCCC[C@@H](C)Oc3ccc(NS(=O)(=O)c4ccccc4)cc3C(=O)N([C@H](C)CO)C[C@@H]2C)cc1
(17) COc1ccc(-c2ccc([C@H]3[C@@H](CO)N4CCCCN(C(=O)c5ccc6c(c5)OCO6)C[C@H]34)cc2)cc1
(18) O=C(C[C@@H]1CC[C@@H]2[C@H](COC[C@@H](O)CN2C(=O)c2cccnc2)O1)NCc1ccc(Cl)cc1
(19) CN(C)Cc1cn(CC[C@H]2CC[C@@H](NC(=O)Nc3ccccc3F)[C@H](CO)O2)nn1
(20) COc1ccc2c3c(n(C)c2c1)[C@H](CO)N(Cc1cc(F)ccc1F)CC31CCN(C(=O)C2CC2)CC1

compound no.	16	17	18	19	20
Vaccinia stage	31	?	10	12	-16
Vaccinia stage Venus	6	.	11	9	-9

(21) O=C(NCC(F)(F)F)[C@H]1[C@H](CO)[C@H]2Cn3c(cccc3=O)[C@H]2N1Cc1cccc(F)c1
(22) C[C@H]1CN([C@@H](C)CO)S(=O)(=O)c2ccc(C3=CCCCC3)cc2O[C@H]1CN(C)Cc1cccc(C(=O)O)c1
(23) CO[C@H]1CN(C)C(=O)c2cc(NC(C)=O)ccc2OC[C@H](C)N(CCC(F)(F)F)C[C@@H]1C
(24) COc1ccc(OC(=O)N(C)C[C@H]2OCc3ccccc3-c3ccccc3C(=O)N([C@@H](C)CO)C[C@H]2C)cc1
(25) COCC#Cc1ccc2c(c1)O[C@H](CN(C)C(=O)COC)[C@H](C)CN([C@@H](C)CO)S2(=O)=O

compound no.	21	22	23	24	25
Vaccinia stage	-2	10	-4	-8	15
Vaccinia stage Venus	-6	6	4	-10	12

(26) C[C@H](CO)N1C[C@H](C)[C@H](CN(C)C(=O)CCC(F)(F)F)OCCCC[C@H](C)Oc2ccc(N(C)C)cc2C1=O
(27) C[C@@H]1CN([C@H](C)CO)C(=O)c2cccc(NC(=O)Nc3ccc(C(F)(F)F)cc3)c2O[C@@H]1CN(C)CC1CCCCC1
(28) CO[C@@H]1CN(C)C(=O)c2ccc(NC(=O)c3cc(C)on3)cc2OC[C@H](C)N(C(=O)C2CC2)C[C@@H]1C
(29) CN(C)c1ccc2c(c1)[C@@H]1C[C@@H](CC(=O)NCc3ccc4c(c3)OCO4)O[C@H](CO)[C@@H]1O2
(30) O=C(C[C@H]1CC[C@@H]2[C@H](COC[C@H](O)CN2S(=O)(=O)c2cccc(F)c2)O1)NC1CCC1

compound no.	26	27	28	29	30
Vaccinia stage	-7	?	5	8	12
Vaccinia stage Venus	-1	.	10	20	11

(31) C[C@@H]1CN([C@@H](C)CO)C(=O)c2c(c3ccccc3n2C)-c2ccccc2CO[C@H]1CN(C)C(=O)Nc1cccc(Cl)c1Cl
(32) O=C(C[C@H]1CC[C@@H]2[C@H](COC[C@H](O)CN2C(=O)c2ccccc2)O1)N1CCOCC1
(33) COc1ccc(C#Cc2cnc3c(c2)C(=O)N([C@H](C)CO)C[C@@H](C)[C@@H](CN(C)CC2CCOCC2)O3)cc1
(34) Cc1noc(C)c1NC(=O)Nc1ccc2c(c1)C(=O)N([C@@H](C)CO)C[C@H](C)[C@H](CN(C)C(=O)Nc1cccc3ccccc13)O2
(35) Cc1noc(C)c1S(=O)(=O)N(C)C[C@H]1Oc2ccc(NC(=O)Cn3cnnn3)cc2CC(=O)N([C@H](C)CO)C[C@H]1C

compound no.	31	32	33	34	35
Vaccinia stage	?	21	-26	11	-2
Vaccinia stage Venus	.	7	-10	1	4

(36) C[C@H](CO)N1C[C@H](C)[C@H](CN(C)C(=O)NC2CCCCC2)Oc2ncc(-c3cccc(C(F)(F)F)c3)cc2C1=O
(37) CCCC(=O)Nc1ccc2c(c1)OC[C@H](C)N(C(=O)CC)C[C@@H](C)[C@H](OC)CN(C)C2=O
(38) O=C(C[C@@H]1C=C[C@H](NC(=O)CCN2CCCCC2)[C@@H](CO)O1)Nc1nccs1
(39) Cc1ccc(-c2ccc3c(c2)O[C@H](CN(C)Cc2cncnc2)[C@@H](C)CN([C@@H](C)CO)S3(=O)=O)cc1
(40) COc1cccc(NC(=O)N[C@H]2C=C[C@H](CC(=O)Nc3ccccc3)O[C@H]2CO)c1

compound no.	36	37	38	39	40
Vaccinia stage	?	4	7	?	-8
Vaccinia stage Venus	.	9	11	.	-12

(41) COc1ccc(S(=O)(=O)Nc2cccc3c2O[C@H](CN(C)C(=O)Nc2c(C)noc2C)[C@@H](C)CN([C@H](C)CO)C3=O)cc1
(42) C[C@H]1CN([C@@H](C)CO)C(=O)c2cc(NC(=O)Nc3cccc4ccccc34)ccc2O[C@H]1CN(C)CC1CCCCC1
(43) CC(=O)N(C)C[C@H]1Oc2cc(/C=C/c3ccccc3)ccc2S(=O)(=O)N([C@H](C)CO)C[C@H]1C
(44) O=C(Nc1ccc(F)cc1)N1CCCCN2[C@H](CO)[C@@H](c3ccc(C#CC4CC4)cc3)[C@H]2C1
(45) O=C(C[C@H]1C[C@@H]2c3cc(NC(=O)C4CCC4)ccc3O[C@@H]2[C@H](CO)O1)NCc1ccccc1

compound no.	41	42	43	44	45
Vaccinia stage	10	?	-6	?	7
Vaccinia stage Venus	9	.	-21	.	2

(46) C[C@@H](NC(=O)C[C@@H]1CC[C@@H]2[C@H](COC[C@@H](O)CN2Cc2ccc(C(F)(F)F)cc2)O1)c1ccccc1
(47) C[C@@H]1CN([C@H](C)CO)C(=O)c2cc(NS(=O)(=O)c3ccc(Cl)cc3)ccc2O[C@@H]1CN(C)Cc1ccncc1
(48) C[C@@H](NC(=O)C[C@H]1C[C@H]2c3cc(NC(=O)Nc4ccccc4F)ccc3O[C@H]2[C@H](CO)O1)c1ccccc1
(49) CO[C@H]1CC[C@@H]2CCN(C)C(=O)[C@@H](C)[C@H](OC)CN(C)C(=O)c3cc(C#N)ccc3OC[C@H]1O2
(50) O=C(C1CCCCC1)N1[C@@H](CO)[C@@H]2c3ccccc3N(S(=O)(=O)c3ccccc3)C[C@@H]21

compound no.	46	47	48	49	50
Vaccinia stage	-10	9	8	15	-4
Vaccinia stage Venus	-1	12	2	-1	-3

(51) COc1ccccc1S(=O)(=O)N(C)C[C@H]1Oc2cc(C#CCC(C)C)ccc2S(=O)(=O)N([C@H](C)CO)C[C@@H]1C
(52) C[C@H](CO)N1C[C@H](C)[C@H](CN(C)C(=O)Nc2ccc(F)cc2)OCCCC[C@H](C)Oc2ccc(NS(=O)(=O)c3cn(C)cn3)cc2C1=O
(53) CO[C@H]1CN(C)C(=O)c2cc(NS(=O)(=O)c3ccccc3C)ccc2OC[C@@H](C)NC[C@@H]1C
(54) O=C(C[C@@H]1C[C@@H]2c3cc(NC(=O)NC4CCCC4)ccc3O[C@@H]2[C@@H](CO)O1)NCc1cccnc1
(55) C/C=C/c1ccc2c(c1)O[C@H](CN(C)C(=O)c1cccc(F)c1)[C@@H](C)CN([C@H](C)CO)S2(=O)=O

compound no.	51	52	53	54	55
Vaccinia stage	-31	16	0	7	-13
Vaccinia stage Venus	-31	5	5	9	-15

(56) C[C@@H]1CN([C@@H](C)CO)C(=O)c2cc(N(C)C)ccc2O[C@@H]1CN(C)Cc1ccc2c(c1)OCO2
(57) O=C(NCC[C@@H]1CC[C@@H](NS(=O)(=O)c2cccc(F)c2)[C@@H](CO)O1)C1CCOCC1
(58) CN1CCN(C(=O)C[C@@H]2CC[C@H]3[C@@H](COc4ccc(NC(=O)C5CCCCC5)cc4C(=O)N3C)O2)CC1
(59) C[C@@H]1CN([C@H](C)CO)C(=O)c2cccc(NC(=O)Nc3ccccc3)c2O[C@H]1CN(C)Cc1ccc(C(=O)Nc2ccccc2N)cc1
(60) COc1ccc(CN(C)C[C@H]2Oc3ccc(NS(=O)(=O)c4cn(C)cn4)cc3C(=O)N([C@H](C)CO)C[C@H]2C)cc1

compound no.	56	57	58	59	60
Vaccinia stage	0	20	-4	-1	11
Vaccinia stage Venus	-6	4	-11	6	-5

(61) COc1ccc2c3c(n(C)c2c1)[C@H](CO)NCC31CCN(Cc2ccc(-c3ccccn3)cc2)CC1
(62) COC(=O)[C@H](Cc1ccccc1)N1CC2=CCCC=C[C@H]2[C@@H]1[C@@H](O)Cc1ccccc1
(63) CCC(=O)Nc1ccc2c(c1)C(=O)N(C)[C@@H]1CC[C@@H](CC(=O)N[C@@H](C)c3ccccc3)O[C@@H]1CO2
(64) C[C@H](CO)N1C[C@H](C)[C@@H](CN(C)Cc2ccc(-c3ccccc3)cc2)Oc2c(NC(=O)c3nc4ccccc4s3)cccc2C1=O
(65) C[C@H]1CN([C@@H](C)CO)C(=O)c2cc(NC(=O)Nc3ccccc3)ccc2O[C@H]1CN(C)S(=O)(=O)c1ccc(F)cc1

compound no.	61	62	63	64	65
Vaccinia stage	?	12	3	?	5
Vaccinia stage Venus	.	28	2	.	20

(66) COc1cccc(S(=O)(=O)N2CCCCN3[C@@H](CO)[C@H](c4ccc(C#CC5CC5)cc4)[C@@H]3C2)c1
(67) C[C@H]1CN([C@@H](C)CO)C(=O)Cc2cc(NC(=O)Nc3cccc4ccccc34)ccc2O[C@@H]1CN(C)CC1CCCCC1
(68) CCC(=O)N1CCCCN2[C@H](CO)[C@@H](c3ccc(C#Cc4ccccc4)cc3)[C@H]2C1
(69) COc1ccc(CN(C)C[C@H]2OCCCC[C@@H](C)Oc3ccc(NC(=O)C4CCCCC4)cc3C(=O)N([C@H](C)CO)C[C@@H]2C)cc1
(70) CNC[C@@H]1Oc2ncc(/C=C/c3ccccc3)cc2C(=O)N([C@H](C)CO)C[C@@H]1C

compound no.	66	67	68	69	70
Vaccinia stage	-19	?	-35	-29	-4
Vaccinia stage Venus	-22	.	-21	-25	4

# Looked up by structure from above, four records:
(46) C[C@@H](NC(=O)C[C@@H]1CC[C@@H]2[C@H](COC[C@@H](O)CN2Cc2ccc(C(F)(F)F)cc2)O1)c1ccccc1
(42) C[C@H]1CN([C@@H](C)CO)C(=O)c2cc(NC(=O)Nc3cccc4ccccc34)ccc2O[C@H]1CN(C)CC1CCCCC1
(13) CCC(=O)N1C[C@@H](C)[C@@H](OC)CN(C)C(=O)c2ccc(NC(=O)CC(F)(F)F)cc2OC[C@@H]1C
(44) O=C(Nc1ccc(F)cc1)N1CCCCN2[C@H](CO)[C@@H](c3ccc(C#CC4CC4)cc3)[C@H]2C1

compound no.	46	42	13	44
Vaccinia stage	-10	?	59	?
Vaccinia stage Venus	-1	.	34	.

# (cont.)
(71) COc1cccc(-c2ccc3c(c2)[C@H]2[C@H](CCN2S(=O)(=O)c2ccccc2F)[C@@H](CO)N3)c1
(72) C[C@@H]1CCCCO[C@@H](CN(C)C(=O)Nc2ccc(C(F)(F)F)cc2)[C@H](C)CN([C@@H](C)CO)C(=O)c2cc(NS(=O)(=O)c3ccccc3)ccc2O1
(73) C[C@@H]1CCCCO[C@@H](CN(C)Cc2ccc(C(=O)O)cc2)[C@H](C)CN([C@@H](C)CO)C(=O)c2cc(NC(=O)NC3CCCCC3)ccc2O1
(74) CO[C@@H]1CN(C)C(=O)c2cccc(C#N)c2OCC[C@@H]2CC[C@@H](OC)[C@@H](CN(C)C(=O)[C@H]1C)O2

compound no.	71	72	73	74
Vaccinia stage	?	-4	18	15
Vaccinia stage Venus	.	-1	9	18
